Screening results (PubChem)
TRPML1 agonist – human mucolipin-1 channel agonism | Q9GZU1 | activation, % (concentration not given with the values) | TRPML1-expressing cells, Ca2+ dye fluorescence, FDSS; host cell line not named in the record; reference of the full effect not given here | AID 624414 | 410,000 tested, 0.12% active; in the data active = activation above about 50%; inconclusive = about 30% to 50%; inactive = below about 30%; note: 0% is about no effect; the text of the record puts the active cut at 80%
Target sequence (Q9GZU1 whole entry, looked up): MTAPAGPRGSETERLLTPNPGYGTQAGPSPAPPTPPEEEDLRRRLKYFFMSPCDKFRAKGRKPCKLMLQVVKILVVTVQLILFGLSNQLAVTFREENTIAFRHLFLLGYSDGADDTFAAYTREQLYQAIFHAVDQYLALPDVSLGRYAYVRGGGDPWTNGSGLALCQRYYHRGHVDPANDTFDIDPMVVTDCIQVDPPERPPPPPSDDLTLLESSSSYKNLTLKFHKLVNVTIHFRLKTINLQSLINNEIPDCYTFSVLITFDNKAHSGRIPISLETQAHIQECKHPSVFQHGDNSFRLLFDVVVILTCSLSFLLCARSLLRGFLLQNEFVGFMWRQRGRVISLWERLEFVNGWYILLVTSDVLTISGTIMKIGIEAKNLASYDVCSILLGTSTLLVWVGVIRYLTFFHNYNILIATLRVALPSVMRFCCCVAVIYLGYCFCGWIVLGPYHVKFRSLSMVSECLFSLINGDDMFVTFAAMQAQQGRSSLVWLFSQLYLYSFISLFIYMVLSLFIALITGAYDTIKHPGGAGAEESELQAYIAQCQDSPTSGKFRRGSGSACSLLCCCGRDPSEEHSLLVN
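TRPML1-DL cells, Tet-induced overnight (~16 h, 37 degrees C), loaded 45-90 min at room temperature with Ca8 no-wash calcium dye plus quencher. FDSS fluorescence: 10 s baseline, compound pin-transfer, 110 s agonist read, then EC80 54-4 (4uM final) and 110 s antagonist read.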
ClpP mod – qHTS Assay for Activators of ClpP | Potency, µM (series often up to 57.5 µM), inactives show at the highest dose activity change, negative = active | ATP-dependent Clp protease proteolytic subunit (Bacillus subtilis (strain 168)), P80244 | 340,000 tested, 1.9% active | purified B. subtilis ClpP, FRET peptide cleavage, 20 min | AID 651965, 2013; active = well fitted falling curve with a large enough effect; inconclusive = small, poorly fitted or top-dose-only effect; inactive = no such curve, though single readings can be large or run the other way; note: potency is the fitted concentration of half-maximal effect; the source files actives as falling curves though it sought activators and does not explain the sign; nearly all actives have a fitted effect of over 65% in size; many hits overshoot -100%
Target sequence (P80244 whole entry, looked up): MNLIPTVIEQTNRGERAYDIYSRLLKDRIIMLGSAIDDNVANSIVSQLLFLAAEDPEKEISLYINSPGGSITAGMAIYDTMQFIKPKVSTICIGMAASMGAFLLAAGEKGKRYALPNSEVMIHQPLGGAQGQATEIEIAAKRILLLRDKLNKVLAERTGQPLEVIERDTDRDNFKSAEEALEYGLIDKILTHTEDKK
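FRET quenching reversal measured ClpP activation: 10 microg/mL B. subtilis ClpP at pH 8 with the FRET-FV decapeptide, read at 430 nm after 320 nm excitation. The 20-min minus 0-min signal was scaled between DMSO/no-enzyme wells and ADEP (5.8 microM final).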
The depositor's hits bear a star; ? = inconclusive; & = joins results of further samples. This is a subset, so the mix of outcomes need not match the whole.

SMILES | TRPML1 agonist | ClpP mod
C(=C\c1ccnc2ccccc12)/c1cccnc1 | -0.3 | 1.7%
COc1ccc(-c2cc(NC=O)c3ncc(-c4cccc(C(F)(F)F)c4)n3c2)c(OC)c1 | -0.5 | ?
CC(C)Oc1cc(F)ccc1-c1cc(C(=O)Nc2cccc(C(F)(F)F)c2)[nH]n1 | 0.4 | ?
NC(c1ccccc1)c1csc(Nc2cc(Oc3ccccc3)ncn2)n1 (stereo not given) | 0.0 | -3.6%
c1ccc2[nH]c(CCCCCc3nc4ccccc4[nH]3)nc2c1 | -0.7 | 0.5%
CC1(C)CC(=O)c2cc(C(=O)Nc3ccccc3)c(=O)[nH]c2C1 | 2.1 | -23%
O=C1NC[C@@H](CCCCN2C[C@H](Cc3ccc(O)cc3)N(CCc3ccccc3)C(=O)C2=O)N(CCC2CCCCC2)C1=O | -0.6 | 1.2%
c1ncc2snnc2n1 | 0.4 | -2.4%
COc1ccc(C(C)(O)c2nc(-c3ccc(Cl)cc3)cs2)cc1 (stereo not given) | 0.6 | -2.6%
CCCCCCCCN1C(=O)[C@H](CC(=O)NCCCN2CCCC2=O)C[C@@]2(C(=O)OCC)CCCC=C12 | 0.9 | -3.3%
COc1cccc(-c2cnc3c(NC=O)cc(-c4ccccc4Oc4ccccc4)cn23)c1 | -0.9 | -22%
Cc1cc(Br)cn2c(Cc3cccc(Cl)c3)c(-c3ccco3)nc12 | 0.1 | -13%
CC(C)C[C@@H]1COc2cc(N3CCC[C@H]3CO)ccc2S(=O)(=O)N1 | -0.6 | -1.2%
c1cc(N2CCOCC2)ccc1-c1ccc2nncn2c1 | -0.4 | -3.7%
CCOC(=O)N1CCN(C(=O)CN2C(=O)/C(=C\c3cccc(OC)c3)SC2=S)CC1 | -0.7 | -0.7%
CCCc1ccc(C(O)c2ncc(-c3cccc(OC)c3)[nH]2)cc1 (stereo not given) | -0.8 | -0.5%
OC(c1ccc(F)c(F)c1)c1nc(-c2ccc3ccccc3c2)cs1 (stereo not given) | 0.4 | -4.6%
CCOC(=O)[C@]12CCCC=C1N(Cc1ccco1)C(=O)[C@H](CC(=O)NCCc1ccccc1OC)C2 | -0.8 | 1.1%
COc1ccc(S(=O)(=O)NNS(=O)(=O)c2ccc(OC)c(OC)c2)cc1OC | -0.6 | 0.2%
Clc1ccc(/C=C/c2ccnc3ccccc23)c(Cl)c1 | -0.3 | -6.5%
COc1ccccc1/C=C/c1nc2ccccc2[nH]1 | -1.0 | 4.2%
CC1(C(=O)Nc2cccc(NS(C)(=O)=O)c2)CCN1Cc1ccccc1OC(F)F (stereo not given) | -0.1 | 0.4%
CCCCNC(=O)C[C@@H]1C[C@@]2(C(=O)OCC)CCC=C2N(Cc2ccccc2)C1=O | -0.9 | 2.4%
CC(=O)Nc1ccc(CN(C)c2c(C)nc3ccc(C(=O)NCCCN4CCCC4=O)cn23)cc1 | -0.8 | 1.0%
COc1ccc(C(=O)NC[C@H]2O[C@@H](n3cnc4c(N)ncnc43)[C@H](O)[C@@H]2O)cc1OC | -0.1 | -3.4%
CC(=O)NC(Cc1ccc(O)cc1)C(=O)NCC(N)C(=O)c1ccccc1 (stereo not given) | 0.1 | -1.1%
Cc1cc2oc(=O)cc(CN3CCN(c4ccccc4)CC3)c2cc1Cl | -0.5 | -2.4%
CC(C)(C)n1nnnc1C(c1cc2ccccc2o1)N1CCN(C(=O)OCc2ccccc2)CC1 (stereo not given) | 0.0 | -13%
CCCCOCCCNC(=O)C[C@@H]1C[C@@]2(C(=O)OCC)CCC=C2N(Cc2ccccc2)C1=O | -0.9 | -0.5%
O=C(N[C@H](CO)Cc1ccccc1)[C@H]1O[C@@H](n2ccc(=O)[nH]c2=O)[C@H](O)[C@@H]1O | 0.3 | -5.6%
Cc1cc(C)cc(C(O)c2ncc(-c3ccc4ccccc4c3)[nH]2)c1 (stereo not given) | -0.5 | 4.0%
Cc1ccc(C(=O)N2CCC2(C)C(=O)NC(C)C)cc1 (stereo not given) | -0.4 | 0.6%
CCCCC(=O)N(C)c1c(CC)nc2c(OCCOC)cccn12 | -0.4 | -11%
COc1ccc(C(C)=O)cc1Cn1c(C)c(C(=O)NCc2ccc(C(F)(F)F)cc2)sc1=O | 4.1 | -0.1%
Cc1c(C(=O)NCc2ccc(C(F)(F)F)cc2)sc(=O)n1Cc1cccc(F)c1 | 25 | -0.8%
CC1(C(=O)NS(=O)(=O)c2cccc(F)c2)CCN1C(=O)c1cccc(F)c1 (stereo not given) | -0.9 | -0.7%
COc1ccc(-c2coc3c(C(=O)NCc4cccc(Cl)c4)cccc23)c(C)c1 | 3.9 | ?
CC(=O)Nc1ccc(CN2C(=O)C(Cc3ccccc3)ON=C2c2cccc(F)c2)cc1 (stereo not given) | -0.4 | 1.1%
CC(=O)Nc1ccc(NC(=O)c2ccc3sc([C@H]4C[C@H](O)[C@@H](CO)O4)nc3c2)cc1 | -0.4 | 1.1%
CCOC(=O)[C@]12CCC=C1N(Cc1ccccc1)C(=O)[C@H](CC(=O)NCCCN1CCCC1=O)C2 | -0.5 | -2.7%

Structures shown so far that contain a CF3 group, in the order listed:
SMILES | TRPML1 agonist | ClpP mod
COc1ccc(-c2cc(NC=O)c3ncc(-c4cccc(C(F)(F)F)c4)n3c2)c(OC)c1 | -0.5 | ?
CC(C)Oc1cc(F)ccc1-c1cc(C(=O)Nc2cccc(C(F)(F)F)c2)[nH]n1 | 0.4 | ?
COc1ccc(C(C)=O)cc1Cn1c(C)c(C(=O)NCc2ccc(C(F)(F)F)cc2)sc1=O | 4.1 | -0.1%
Cc1c(C(=O)NCc2ccc(C(F)(F)F)cc2)sc(=O)n1Cc1cccc(F)c1 | 25 | -0.8%

(more compounds)
SMILES | TRPML1 agonist | ClpP mod
O=C(NCc1ccccc1)c1ccc(-c2ccc(F)c(F)c2)c2ccoc12 | 1.6 | 4.9%
C=CCNc1nc(NCc2ccc(NC(C)=O)cc2)c2sc(-c3ccccc3)cc2n1 | -0.9 | ?
Cn1nc(C(C)(C)C)cc1C(=O)N1CCC(C)(C(=O)NS(=O)(=O)C2CC2)C1 (stereo not given) | -0.7 | 3.0%
CCCCOCCCNC(=O)C[C@@H]1C[C@@]2(C(=O)OCC)CCC=C2N(Cc2cccc3ccccc23)C1=O | 0.0 | -0.8%
O=C1OC(c2ccc(F)cc2)CC1CN1CCOCC1 (stereo not given) | -0.3 | -1.4%
CCOC(=O)[C@]12CCC=C1N(CCC1=CCCCC1)C(=O)[C@H](CC(=O)N1CCCC1)C2 | -0.8 | -5.9%
O=C1c2ccccc2C(c2nnnn2-c2ccc3c(c2)OCCO3)N1Cc1cccc(F)c1 (stereo not given) | -0.1&1.6 | 1.4%&0.3%
CC1(C(=O)Nc2cnc3ccccc3c2)CCN1C(=O)c1ccccc1CCc1ccccc1 (stereo not given) | 0.2 | ?
O=S1(=O)CC(N2CCCC2)CN1Cc1cn(Cc2ccc(Cl)cc2)nn1 (stereo not given) | -0.5 | 1.0%
Oc1ccc(Cl)cc1C1C=C(c2ccc3c(c2)OCO3)NC(c2ccc(Br)cc2)N1 (stereo not given) | 3.2 | -14%
COC(=O)[C@]12CCCCC=C1N(Cc1ccc(Cl)cc1Cl)C(=O)[C@H](CC(=O)N1CCCC1)C2 | -0.8 | -0.4%
Nc1[nH]c(C(=O)c2ccccc2)c(-c2ccccc2Br)c1C(=O)NCCc1ccc(Cl)cc1Cl | -0.1 | -0.9%
Cc1cc(C)c(C(=O)c2ccccc2C(=O)O)c(C)c1 | 0.6 | -3.7%
O=C(Nc1cccc2cccnc12)c1csc(COCCO)n1 | -0.6 | -3.3%
COc1ccc(-c2csc(C(C)(O)c3cccc(OC)c3)n2)cc1 (stereo not given) | -0.7 | -1.0%
COc1ccc(C(=O)C[n+]2cccc3cc(Cl)ccc32)cc1 | 0.9 | -2.3%
C[C@@H](c1ccccc1)N1C[C@@H](COCc2ccccc2)Oc2cc(N3CCC[C@H]3C(N)=O)ccc2S1(=O)=O | -0.2 | 0.2%
Cc1cnc(CNC(=O)c2csc([C@H]3C[C@H](O)[C@@H](CO)O3)n2)cn1 | 0.4 | -2.5%
CNC[C@H]1Oc2cc(Br)ccc2S(=O)(=O)N([C@@H](C)CO)C[C@H]1C | -0.1 | 2.8%
CCc1ccccc1N(C)C | -0.4 | 0.9%
CCCCc1c(-c2ccccc2)ncn1CCc1ccccc1OC | -0.6 | 1.5%
OCCN1CCN(c2ncnc3c2ncn3[C@H]2CN(Cc3ccncc3)C[C@@H](CO)O2)CC1 | -0.3 | -2.7%
CC(=O)c1cccc2c1OC(C)C(=O)N2Cc1ccc(Cl)cc1 (stereo not given) | -0.3 | -9.0%
CCCS(=O)(=O)NC(=O)C1(C)CCN(C(=O)c2cc(F)cc(F)c2)C1 (stereo not given) | -0.4 | 1.4%
CC1(C(=O)Nc2cccc(Oc3ccccc3)c2)CCN1C1Cc2ccccc2C1 (stereo not given) | -0.3 | -4.3%
CC1(Cc2ccccc2OC(F)(F)F)C(=O)Nc2ccc(S(=O)(=O)NC3CCCCC3)cc21 (stereo not given) | -0.1 | 2.2%
O=C(OCc1ccccc1)N1CCC2CC1c1ccc(/C=C/CCCCl)cc12 (stereo not given) | 1.3 | -9.7%
O=C(Nc1ccc(Cl)c(C(F)(F)F)c1)C1Cc2c(-c3ccccc3Oc3ccccc3)ccnc2O1 (stereo not given) | 0.1 | -10%
O=C1c2ccccc2C(c2nnnn2Cc2ccccc2)N1Cc1cccs1 (stereo not given) | -0.6&-0.7 | -1.5%&0.3%
O=C(c1ccc(-c2ccccc2)cc1)N1CCC2CC1c1cc(-c3ccc4c(c3)OCO4)ccc12 (stereo not given) | -0.1 | -21%
CC1(C(=O)NS(=O)(=O)c2ccccc2Cl)CCN1C(=O)c1ccccc1CCc1ccccc1 (stereo not given) | -1.1 | -2.0%
COC(=O)c1ccc2nc(-c3ccc(C)cc3)c(Cc3ccc(OC)cc3C)n2c1 | 3.4 | 5.5%
CCCNC(=O)C1(C)CCCN(C(=O)C2(c3ccc(Cl)cc3)CCCC2)C1 (stereo not given) | -0.6 | -6.4%
CCNC(=O)C1(C)CCN(C(=O)c2ccc(F)c(Cl)c2)C1 (stereo not given) | -0.7 | -1.5%
CC1(C(=O)Nc2ccccc2F)CCN1C(=O)Cc1cc(F)ccc1F (stereo not given) | -0.9 | -3.0%
Cc1ccc(Cc2c(-c3ccc(F)cc3)nc3c(Cl)cc(C(F)(F)F)cn23)cc1 | 0.5 | ?
CCCCc1c(-c2ccccc2OC)ncn1Cc1ccc(Cl)cc1 | 0.2 | -5.9%
CC(C)Oc1ccc(F)cc1-c1cc(C(=O)NCc2cc(C(F)(F)F)cc(C(F)(F)F)c2)[nH]n1 | 0.6 | ?
CC(=O)N1Cc2cc(C(=O)NCC(F)(F)F)nc(-c3cccc(-c4cc5ccccc5o4)c3)c2[C@H]1CCO | -0.1 | ?
CCc1nc2c(OCc3ccccc3)cccn2c1N(C)C(=O)Nc1ccccc1OC | -0.8 | -3.2%

Some of the entries above, set out differently:
molecule	TRPML1 agonist	ClpP mod
CCCNC(=O)C1(C)CCCN(C(=O)C2(c3ccc(Cl)cc3)CCCC2)C1 (stereo not given)	-0.6	-6.4%
CC1(C(=O)Nc2cccc(Oc3ccccc3)c2)CCN1C1Cc2ccccc2C1 (stereo not given)	-0.3	-4.3%
OCCN1CCN(c2ncnc3c2ncn3[C@H]2CN(Cc3ccncc3)C[C@@H](CO)O2)CC1	-0.3	-2.7%

(further entries)
SMILES | TRPML1 agonist | ClpP mod
COCCCNC(=O)c1ccc2sc(C3=C[C@@H](O)[C@@H](O)[C@@H](CO)O3)nc2c1 | -0.1 | -19%
CC(=O)NC(C)(c1ccccc1)c1nc(-c2cccc(F)c2)cs1 (stereo not given) | -0.5 | -0.8%
COc1ccc(OC)c(NC(=O)Nc2nc(C(N)CCc3ccccc3)cs2)c1 (stereo not given) | -0.2 | -1.5%
CC(=O)Nc1ccc(NC(=O)C2Cc3c(-c4ccco4)ccnc3O2)cc1 (stereo not given) | -0.8 | -3.4%
OC[C@@H]1CN(Cc2cccs2)C[C@H](n2cnc3c(Nc4ccccc4)ncnc32)O1 | -0.7 | -29%
COc1cccc(CNC(=O)[C@@H]2CCCN2)c1 | -0.9 | -0.1%
CN1CCN(c2ccc3c(c2)OC[C@@H](Cc2ccccc2)NS3(=O)=O)CC1 | -0.3 | -3.7%
COC(=O)c1ccc(NC(=O)COc2ccccc2C(=O)Nc2ccccc2)cc1 | -0.9 | 5.1%
CC(=O)Nc1c([N+](=O)[O-])cc2c3c(cccc13)CC2 | -0.8 | 1.7%
COC(=O)c1cnc(Nc2nc(C(N)Cc3ccccc3)cs2)nc1C(F)(F)F (stereo not given) | 1.5 | 0.5%
OC(c1ccc(Cl)c(F)c1)c1ncc(-c2ccc(Cl)cc2)[nH]1 (stereo not given) | -0.8 | 1.1%
c1ccc2c(-c3ccc4nncn4c3)cncc2c1 | -0.3 | -15%
COC(=O)c1cc(=O)nc(NNC(C)=O)s1 | 0.0 | 0.7%
CC(C)c1ccc(CN2CCC2(C)C(=O)Nc2cnc3ccccc3c2)cc1 (stereo not given) | 0.1 | -3.3%
CCc1nc2ccc(C(=O)NCCCN3CCCC3=O)cn2c1N(CC)CCN(C)C | -0.6 | -4.3%
